Assay outcomes (PubChem BioAssay)
2A firefly: FMDV 2A StopGo reporter, firefly signal; HEK cells with a luciferase reporter of 2A StopGo recoding; Potency, µM (titrated, usually from 57.5 µM), for the others: at the highest dose signal change, negative = less light; 120,000 tested, 0.23% active; AID 1745856; active = well fitted falling curve with a large enough effect; inconclusive = small, poorly fitted or top-dose-only effect; inactive = no such curve, though single readings can be large or run the other way; also: nearly all actives have a fitted effect of over 60% in size; overnight with compound
2A Renilla: FMDV 2A StopGo reporter, Renilla signal. HEK cells with a luciferase reporter of 2A StopGo recoding. 120,000 tested, 0.32% active. Potency, µM (series often up to 57.5 µM), for the others: top-dose signal change, negative = less light. AID 1745857; active means well fitted falling curve with a large enough effect; inconclusive means small, poorly fitted or top-dose-only effect; inactive means no such curve, though single readings can be large or run the other way; also: nearly all actives have a fitted effect of over 55% in size; overnight with compound
Active calls of the source: *; ? = inconclusive; [ ] = remark or other dose. % is scaled to controls: 0 for no effect and ±100 for the full control effect; potency is read from the fitted curve at half-maximal effect. Not all compounds are listed, so the mix of outcomes need not match the whole.

mol | 2A Renilla | 2A firefly
Cc1c(C)n(CCN(C)C)c2ncn3nc(-c4ccccc4Cl)nc3c12 | -4% | 2%
Cc1ccc(NC(=O)CCCc2nc(-c3ccco3)no2)cc1Cl | 19% | -9%
CCN(CCCNC(=O)c1cc2c(=O)n(C)c3ccccc3c2s1)Cc1ccccc1 | 0% | -17%
CCCCCCCCNC(C)C(O)c1ccc(SC(C)C)cc1 (stereo not given) | -6% | -15%
CCCC/C=N/NC(=O)CCCCCCCCCCC | -5% | 5%
CS(=O)(=O)N(Cc1csc(-c2cccs2)n1)C1CCN(C(=O)c2cccc(Cl)c2)CC1 | 29% | -12%
COc1ccc(C(=O)Nc2ccccc2C(=O)N2CCOCC2)cc1 | 21% | -11%
CCNC(=O)c1ccc2nc(CCc3ccccc3)oc2c1 | 23% | 112%[activator]
O=C1c2oc3ccccc3c(=O)c2C(c2cccc(O)c2)N1c1nncs1 (stereo not given) | -7% | 0%
CC1CCCN(c2nc(-c3ccccn3)nc3ccccc23)C1 (stereo not given) | ? | ?
Cc1nc2cc(-c3ccccc3)nn2c(C)c1CCC(=O)Nc1ccc(F)cc1 | -3% | 3.2µM*
CCCNc1c(NC(=O)CC(=O)OC)c(=O)oc2ccccc12 | 1% | 0%
COc1cccc(CNC(=O)c2cc(C)nc3ccc(C)cc23)c1 | -3% | -19%
O=C(Nc1cccc(-c2nc3ccccc3o2)c1)c1ccccc1Cl | 6% | 31%[activator]
CCn1ccc2cc(S(=O)(=O)N3CCC(C(=O)NCCCOC)CC3)ccc21 | 6% | 8%
Cc1cccc(OCc2nc(C#N)c(NCCN3CCOCC3)o2)c1 | 7% | -5%
Cc1cc(=O)oc2cc(OCC(=O)N(C)Cc3cccs3)c(Cl)cc12 | 0% | 19%
CCCc1ccc(-c2cc(C(=O)Nc3nncs3)c3ccccc3n2)cc1 | 0% | 187%[activator]
CN(C)CC(NCc1cccc(C#N)c1)c1ccccc1 (stereo not given) | -13% | -17%
Cc1ccc2c(c1)cc(C(=O)NCc1ccc(F)cc1)n2C | -1% | -11%
COc1ccc(CNC(=O)c2cnn(-c3ccc(F)cc3)c2-n2cccc2)cc1 | 2% | -5%
COc1ccc(OC)c(NC(=O)Cc2c(C)c3c(OC)cc(C)cc3oc2=O)c1 | -6% | 1%
CCOC(=O)c1c(C)[nH]c(CCC(=O)Nc2c(C)cccc2CC)c1C | -11% | 6%
CCN(C(=O)CSc1nc2ccccc2n1CC(=O)Nc1cccc(C#N)c1)c1ccccc1 | 118%[activator] | -15%
CSc1cccc(NC(=O)N2CCC3(CC2)N=C(c2cccc(Cl)c2)C(=O)N3)c1 | -11% | 6%
Cc1ccc(-n2c(SC(C)C(=O)c3ccc(F)c(F)c3)nnc2N2CCOCC2)cc1 (stereo not given) | 9% | 0%
CCOCCCNC(=O)CN1C(=O)COc2ccc(S(=O)(=O)N3CCOCC3)cc21 | -10% | ?
Cc1oc(-c2cccs2)nc1C(=O)NCC1CCN(C2CC2)C1 (stereo not given) | -14% | -5%
COc1ccc(CNC(=O)c2cc(=O)c(OCc3ccccc3F)co2)cc1 | -8% | 3%
CCc1ccccc1NC(=O)CSc1nc(-c2ccccc2OC)nc2c1Cc1c(CO)cnc(C)c1O2 | -9% | -8%
CC(Sc1ccc(Br)cc1)C(=O)NC(N)=O (stereo not given) | -9% | -7%
COC(=O)c1ccc(Nc2ncnc3c2cnn3C)cc1 | -12% | -12%
Cc1cc(NCc2cccs2)ccc1NC(=O)c1ccco1 | 5% | 6%
O=C(c1cc(-c2ccccn2)nc2ccccc12)N1CCOCC1 | -10% | -2%
CN1CCc2c(sc(NC(=O)CSc3ccc(F)cc3)c2-c2nc3ccccc3s2)C1 | -4% | -11%
COc1ccc(NC(=O)Cc2csc(COc3cccc(C)c3)n2)cc1OC | ? | 0%
CCOC(=O)Cn1c(=O)oc2cc(S(=O)(=O)N3CCN(c4cccc(Cl)c4)CC3)ccc21 | -11% | -21%
COC(=O)c1ccc(COC(=O)c2ccccc2C(=O)c2ccc(Cl)cc2)cc1 | 3% | 0%
CC(CO)NC(=O)C(C)Sc1ccccc1 (stereo not given) | 19% | 0%
Cc1ccc(-c2nnn3c2nc(NCCc2ccccc2)c2ccccc23)cc1 | -8% | 100%[activator]
Cc1ccccc1NC(=O)Cc1nc(-c2c[nH]c(C(=O)N3CCCC3)c2)cs1 | -7% | -10%
CCOc1ccc(C(C)=O)c2ccccc12 | 14% | 20%
Cc1oc(-c2cccs2)nc1CC(=O)Nc1ccc(F)cc1F | 29% | 5%
O=S(=O)(Nc1ccc(Br)cc1)c1ccc2nc(-c3ccccc3)[nH]c2c1 | 324%[activator] | 9%
COc1ccc(-c2cc(C(F)(F)F)nc(SCCC(=O)Nc3ccccc3F)n2)cc1 | 4% | -1%
O=C(NC1(C(F)(F)F)N=C(c2ccccc2)N(C2CCCCC2)C1=O)c1ccccc1F (stereo not given) | -18% | -24%
C#CCN(Cc1ccc(C)cc1)C(=O)C1CCCN(C(=O)CC)C1 (stereo not given) | 2% | -2%
CCc1noc(C)c1C(=O)Nc1ccc(C(C)C)cc1 | 8% | 92%[activator]
C=CCc1ccc(OCc2ccc(C(=O)Nc3ccc(NC(C)=O)cc3)o2)c(OC)c1 | -6% | ?
CCc1cc(C#N)c(N)s1 | -8% | 25%
COc1ccc(S(=O)(=O)NCC(c2ccc(N(C)C)cc2)N2CCCC2)cc1 (stereo not given) | -13% | -22%
O=C(CCCSc1nc2ccccc2s1)NCCc1ccc(F)cc1 | 37%[activator] | 43%[activator]
COc1cccc(CNS(=O)(=O)c2ccc(-c3cc(C(F)(F)F)on3)s2)c1 | -20% | -13%
Cc1cccc2cc(COC(=O)c3ccco3)c(=O)[nH]c12 | -14% | -7%
COc1ccc(CNC(=O)/C=C/c2ccc(C)cc2)cc1 | 23% | 0%
O=C(O)COc1nc(Cl)c(Cl)cc1Cl | -18%[114 µM] | -11%[22.9 µM]
CCCCNc1nc2c(c(=O)n(Cc3ccc(Cl)cc3)c(=O)n2C)n1C | -8% | 1%
COCCCNC(=O)CSc1nc(-c2cccc(F)c2)[nH]c1-c1ccccc1 | 11% | -4%
COc1ccc(OC)c2sc(N3CCN(C(=O)c4ccc5c(c4)CCCC5)CC3)nc12 | -12% | -6%
O=C(NCCc1ccc(Cl)cc1)c1cc2ccccc2oc1=O | 8% | -7%

Overlap with the part before: two compounds; new compounds follow.
mol | 2A Renilla | 2A firefly
COc1ccc(OC)c2sc(N3CCN(C(=O)c4ccc5c(c4)CCCC5)CC3)nc12 | -12% | -6%
O=C(NCCc1ccc(Cl)cc1)c1cc2ccccc2oc1=O | 8% | -7%
CCC(=O)N1c2ccccc2NC2=C(C(=O)CC(C)(C)C2)C1c1cc(OC)ccc1OC (stereo not given) | 13% | -2%
Cc1cc2c(cc1C)CSC(c1cc(Br)cc(Br)c1O)SC2 | 8% | 33%[activator]
COc1ccc(-c2cc(C)no2)cc1S(=O)(=O)NCc1cccs1 | 85%[activator] | 47%[activator]
CC1=C(C(=O)Nc2ccc(C)cn2)C(c2cccc(Oc3ccccc3)c2)C2=C(CCCC2=O)N1 (stereo not given) | 55%[activator] | -13%
COc1ccccc1NC(C)c1nnc(-c2cccs2)o1 (stereo not given) | -4% | 4%
Cc1ccc(-n2c(SCC(=O)Nc3cccc(F)c3)nc3c(=O)[nH]cnc32)cc1 | 47%[activator] | 77%[activator]
Cc1ccc(-c2n[nH]c(=O)c3ccccc23)cc1S(=O)(=O)NC1CCCCC1 | 287%[activator] | 2%
CCc1ccc(C(=O)NC(C)C2CC3CCC2C3)s1 (stereo not given) | 18% | 109%[activator]
Clc1nc2ccccc2cc1CSc1ccc2c(c1)OCCO2 | ? | ?
O=C(O)Cn1cc(C(C(=O)O)N2CCN(Cc3cccnc3)CC2)c2ccc(Br)cc21 (stereo not given) | -12% | -8%
O=C(CCC1N=C2c3ccccc3N=C(SCc3ccc(F)cc3)N2C1=O)NCc1cccs1 (stereo not given) | -8% | -17%
COc1ccc(CN(C)C(=O)c2cc(Cl)c3c(c2)OCCO3)c(OC)c1 | 0% | ?
CC(C)Cc1nn2c(=O)cc(CSc3nnc(-c4ccccc4F)o3)nc2s1 | -12% | -9%
CCOC(=O)/C(=C/C=C(\C1=CCCCC1)N(CC)CC)C(C)=O | 17% | 11%
CN1CCN(C(=O)CSc2nc3ccccc3o2)CC1 | 7% | 48%[activator]
CCN(CC)C(=O)C1CCN(S(=O)(=O)c2ccc3c(c2)CCCN3C(C)=O)CC1 | -20% | -13%
CCCCCCCCN1C(=O)[C@@H](CC(=O)NCc2ccc(OC)c(OC)c2)C[C@@]2(C(=O)OC)C1=C[C@H](C(C)C)O[C@@H]2C1CC1 | ? | ?
CN(C)c1ccc(Nc2cccc3nccnc23)cc1 | 1% | 8%
CC(=O)c1cccc(NC(=O)C(C)Oc2cccc(Cl)c2)c1 (stereo not given) | 8% | 19%
O=C(NCCCc1ccccc1)c1ccc[n+]([O-])c1 | -13% | 8%
CNC(=O)CSc1cc(C)c2cc(C)cc(C)c2n1 | -1% | 7%
CCS(=O)(=O)N1CCc2cc(C(=O)CSc3cccc(OC)c3)ccc21 | ? | -12%
NCCOc1ccc(C2CCCCC2)cc1 | 28% | 0%
Cc1cccc(OC(=O)Cc2ccc3c(c2)OCCO3)c1 | 4% | 0%
COc1cc(NC(=O)CCc2c(C)nn(-c3ccc(N4CCCCC4)nn3)c2C)cc(OC)c1OC | -1% | 85%[activator]
Cn1c(=O)c2c(nc(Sc3ncccn3)n2Cc2ccccc2Cl)n(C)c1=O | 8% | 19%
Cc1ccc(CN2C(=O)c3ccccc3CC2(C)C(=O)NC2CCCCC2)cc1 (stereo not given) | 1% | 0%
O=C(Nc1ccc2oc(-c3ccncc3)nc2c1)c1cccc(Cl)c1 | -3% | 6%
CC(Oc1ccccc1)C(=O)NCc1cccnc1N(C)C (stereo not given) | 7% | 10%
Cc1ccc(-c2nc3cc(C(C)C)ccc3o2)cc1NC(=O)c1cc([N+](=O)[O-])ccc1N1CCOCC1 | 8% | 106%[activator]
Cn1c(=O)cc(SCC(=O)N2CCN(c3ccccc3F)CC2)c2cc(Cl)ccc21 | -1% | -11%
Cc1ccc(CN(C)C(=O)CCc2ccc(C#N)cc2)o1 | 23% | 4%
O=C(COC(=O)c1cc2ccccc2oc1=O)NCc1ccccc1Cl | 13% | 16%
CCC(=O)Nc1ccc(C)cc1-c1nc2ccccc2n(C(C)C(=O)Nc2ccccc2CC)c1=O (stereo not given) | -10% | -23%
CCn1c(CNC(C)c2ccc(F)cc2)nc2cc(S(=O)(=O)N3CCCCC3)ccc21 (stereo not given) | 37%[activator] | -2%
O=C(Nc1cnc2ccccc2c1)c1cccc(S(=O)(=O)N2CCN(c3ccccc3)CC2)c1 | -10% | -3%
Cc1ccc(CNC(=O)NCC(=O)N(C)Cc2ccccc2)cc1 | -8%[1.06 µM] | 4%
CC(C)c1ccc(NC(=O)Cn2c3ncccc3c(=O)n2-c2ccccc2)cc1 | -5% | -19%
Cc1ccccc1Nc1nc(N)nc(CSc2nnc(C3CC3)n2C)n1 | -9% | -6%
COc1cccc(CNC(=O)c2cc3cc(C)ccc3n2C)c1 | ? | -24%
Clc1cccc(CNCCN2CCCC2)c1 | 4% | 0%
COc1cccc(CNS(=O)(=O)c2ccc3c(c2)CCN3C(=O)C2CCC2)c1 | 109%[activator] | 23%
O=C(CSc1nnnn1C1CCCC1)N1CCN(S(=O)(=O)c2ccc3ccccc3c2)CC1 | 23% | 0%
O=C1CCCC2=C1C(c1ccccc1Cl)CC(=O)N2c1ccccc1F (stereo not given) | -6% | -13%
O=C(O)CNS(=O)(=O)c1cccnc1 | -12%[1.06 µM] | -1%

Entries listed so far that contain a furan ring, fused or not, in the order listed:
mol | 2A Renilla | 2A firefly
Cc1ccc(NC(=O)CCCc2nc(-c3ccco3)no2)cc1Cl | 19% | -9%
Cc1cc(NCc2cccs2)ccc1NC(=O)c1ccco1 | 5% | 6%
C=CCc1ccc(OCc2ccc(C(=O)Nc3ccc(NC(C)=O)cc3)o2)c(OC)c1 | -6% | ?
Cc1cccc2cc(COC(=O)c3ccco3)c(=O)[nH]c12 | -14% | -7%
Cc1ccc(CN(C)C(=O)CCc2ccc(C#N)cc2)o1 | 23% | 4%

Going on with the list:
mol | 2A Renilla | 2A firefly
CC(C)n1nnnc1C1(C)Cn2nccc2C(=O)N1Cc1cccc(C(F)(F)F)c1 (stereo not given) | 28% | -11%
CCc1ccccc1Nc1nn2c(=O)c3ccc(C(=O)Nc4ccc(OC)cc4)cc3nc2s1 | -6% | 7%
CC1(C)O[C@@H]2C[C@H]3[C@@H]4C[C@H](F)C5=CC(=O)C=C[C@]5(C)[C@H]4[C@@H](O)C[C@]3(C)[C@]2(C(=O)CO)O1 | -21% | -22%
COc1cccc(OC(=O)CSc2nnc(-c3ccccc3OC)o2)c1 | 1% | -3%
O=C(O)CNS(=O)(=O)c1c(F)cccc1F | 3% | -6%
Cc1ccccc1Nc1c(-c2ccc(N3CCOCC3)cc2)nc2ccc(Br)cn12 | -13% | 9%
